Bioassay records deposited in PubChem BioAssay by several laboratories.
E coli growth: E. coli growth inhibition; Escherichia coli growth, OD600, 23 h; hits give low values; OD600 absorbance (no concentration beside the values); hit rate 0.21% among 330,000;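 active means OD600 absorbance below the run mean of sample wells minus 3.6 SD, in any replicate, cut at about 0.56 in these data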;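 further: stock transfer was 300 nL into about 60 µL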
UCH37 DUB inh: blocks the human deubiquitinase UCH37; purified proteasome/UCH37, Ub-AMC cleavage fluorescence; hit rate 0.33% among 330,000; inhibition, % (test concentration not listed); Q9Y5K5;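 active means mean of two replicates above 20%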;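 further: 0% = compound-free wells with enzyme and 100% = wells lacking proteasome; stock transfer was 100 nL into about 20 µL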
Target sequence (Q9Y5K5 whole entry, looked up): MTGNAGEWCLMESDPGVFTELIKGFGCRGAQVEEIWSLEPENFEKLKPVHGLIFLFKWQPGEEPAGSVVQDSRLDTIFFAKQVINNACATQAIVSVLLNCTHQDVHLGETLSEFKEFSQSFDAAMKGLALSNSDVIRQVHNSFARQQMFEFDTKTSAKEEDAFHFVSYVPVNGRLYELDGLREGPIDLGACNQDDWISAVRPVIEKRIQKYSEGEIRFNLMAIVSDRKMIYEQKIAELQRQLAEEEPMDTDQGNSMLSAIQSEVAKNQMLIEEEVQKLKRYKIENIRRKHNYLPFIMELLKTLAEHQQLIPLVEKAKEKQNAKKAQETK
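Material: human UCH37 enzyme supplied as purified proteasome complex / Amount: 0.15 nM proteasome as dispensed / Buffer or medium: pH 7.4 Tris-HCl (50 mM) with ovalbumin, ATP-MgCl2, DTT / Times: preincubation 30 min, reaction 25 min, room temperature / Technique: AMC fluorescence from Ub-AMC cleavage, excitation 355 nm, emission 460 nm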
FGF22 binding: binders of recombinant human FGF22 by thermal shift; Q9HCT0; SYPRO orange fluorescence; percent of sucrose octasulfate shift, DMSO zero; calls only at 9.99 µM; hit rate 1.5% among 340,000; AID 651658;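 active means melting point raised past a set limit in the mean and every replicate; inconclusive means no clear call; three in four hits are not shown here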
Target sequence (Q9HCT0 whole entry, looked up): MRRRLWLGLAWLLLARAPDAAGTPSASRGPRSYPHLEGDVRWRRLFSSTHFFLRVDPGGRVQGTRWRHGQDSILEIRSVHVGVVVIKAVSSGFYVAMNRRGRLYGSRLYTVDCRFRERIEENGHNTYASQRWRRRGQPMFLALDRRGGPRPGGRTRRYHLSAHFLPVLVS
MLL AF4-AF9 inh: MLL-AF4/AF9 protein interaction inhibition. P42568. AlphaScreen, biotin-AF4 peptide binding to FLAG-AF9. inhibition, % at 10 µM. hit rate 0.47% among 350,000;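 active means every replicate reaching a set inhibition limit, whatever the replicate mean, cut at about 25% in these data; inconclusive means mean inhibition reaches that limit but some replicates miss it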;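 further: 0% = plate neutral control median and 100% = total signal loss; the record names both 10 and 1 µM as test concentration; the first replicate is given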
Target sequence (P42568 whole entry, looked up): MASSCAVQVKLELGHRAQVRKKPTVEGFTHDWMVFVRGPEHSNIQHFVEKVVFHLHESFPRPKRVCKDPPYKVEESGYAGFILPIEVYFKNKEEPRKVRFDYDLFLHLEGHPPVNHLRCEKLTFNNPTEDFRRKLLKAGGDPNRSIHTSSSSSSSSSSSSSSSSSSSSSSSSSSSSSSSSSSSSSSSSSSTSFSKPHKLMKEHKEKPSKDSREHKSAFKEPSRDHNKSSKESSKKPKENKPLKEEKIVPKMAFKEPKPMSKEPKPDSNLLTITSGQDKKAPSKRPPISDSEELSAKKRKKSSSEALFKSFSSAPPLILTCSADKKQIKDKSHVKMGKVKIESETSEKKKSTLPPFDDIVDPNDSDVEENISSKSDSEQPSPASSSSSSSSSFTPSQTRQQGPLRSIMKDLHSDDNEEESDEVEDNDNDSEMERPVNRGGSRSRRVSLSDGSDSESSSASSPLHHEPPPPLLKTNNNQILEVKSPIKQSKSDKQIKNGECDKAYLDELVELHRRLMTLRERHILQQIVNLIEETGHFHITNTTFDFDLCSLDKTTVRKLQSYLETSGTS
RanGTP-Imp inh: inhibitors of RanGTP-importin-beta interaction, primary screen, biochemical, FRET, CFP-Ran, YFP-importin-beta, homogeneous; inhibition, % (no concentration beside the values); AID 2216; hit rate 1.1% among 300,000; cell-free CFP-Ran/YFP-importin-beta FRET ratio;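 active means most replicates above 15%; inconclusive means exactly half above 15%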;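 further: 0% = DMSO wells and 100% = Ran loaded with GDP instead of GTP; wells of about 40 µL received 100 nL stock; the first replicate is given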
HNF4A DNA FP: change in binding of human HNF4 alpha to DNA; P41235; HNF4a-FITC DNA binding, fluorescence polarization, 1 h; activity change, % at 10 µM; hit rate 0.3% among 360,000; in the data active means activity change above about 30%, passing the limit was not always enough;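 further: controls were the assay level and a saturating level of protein; the project sought stronger binding though the title names inhibitors; some compounds called inactive have numbers as strong as hits; positive values seem to mean higher polarization but the record does not say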
Vif TR-FRET: inhibitors of Vif binding to APOBEC3G peptide, primary screen, biochemical, TR-FRET, GST-Vif 1-94, biotin-A3G peptide, dose response retest (AID 1117319); TR-FRET GST-Vif / biotin-A3G peptide binding; higher % means a stronger effect; test concentration not given here; strong numbers were not always called active; one-dose inhibition, %; IC50 in µM for titrated hits; hit rate 0.57% among 260,000;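 active means above the screen mean plus three standard deviations and confirmed in dose response; inconclusive means results disagree or hit not tested in dose response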;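 further: Vif residues 1-94 fused to GST binding biotinylated APOBEC3G peptide 110-148; 0% = full assay without inhibitor and 100% = GST in place of GST-Vif; retest series ran down from 100 µM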
An asterisk follows results filed as active; i = inactive; ? = inconclusive; / = not tested or not shown; + = active, no number; & = joins results of further samples. Not all compounds are listed, so the mix of outcomes need not match the whole.

no.	SMILES	E coli growth	UCH37 DUB inh	FGF22 binding	MLL AF4-AF9 inh	RanGTP-Imp inh	HNF4A DNA FP	Vif TR-FRET
1	Cc1ccc(Sc2ncccc2C(=O)NCC(c2ccc(F)cc2)N2CCOCC2)c(C)c1 (centres undefined)	0.63	1.9	i	-11	-0.9	0.1	-3%
2	CNc1oc(-c2ccc(C)cc2)nc1P(=O)(c1ccccc1)c1ccccc1	0.68	1.1	/	/	-4.0	-5.1	8%
3	COC(=O)C1=NN(c2ccc(C)cc2)C2(S1)SC(C(C)=O)=C(C)N2c1ccccc1 (centres undefined)	0.69	4.9	/	/	0.2	1.8	-4%
4	NS(=O)(=O)c1ccc(NC(=S)NC2CCCCCC2)cc1	0.69	2.5	/	/	3.6	1.5	7%
5	CCOC(=O)c1ccc(N2C(=O)CC(N(Cc3ccc4c(c3)OCO4)C(=O)Nc3ccccc3)C2=O)cc1 (centres undefined)	0.71	4.8	i	-14	-0.5	2.8	22%
6	c1coc(-c2nc3nc4ccccc4nc3n2-c2ccc3c(c2)OCCO3)c1	0.69	0.9	/	/	/	0.6	-2%
7	COc1ccc(Nc2oc(-c3ccccc3F)nc2C#N)cc1	0.71	-491	i	1.7	-0.3	-1.0	/
8	CC(=O)N1CCN(Cc2nc3cc(NC(=O)COc4ccccc4)ccc3n2C)CC1	0.65	3.0	i	-0.4	-0.1	-0.1	5%
9	COc1ccc(OC)c(S(=O)(=O)N2CCC(C(=O)Nc3cccc(C(F)(F)F)c3)CC2)c1	0.7	3.6	/	/	-3.7	-3.3	-3%
10	Cc1cccc(C)c1NC(=O)CNC(=O)c1ccc(N2CCOCC2)c([N+](=O)[O-])c1	/	/	i	-10	/	-2.0	4%
11	O=C1C2(c3ccccc3)CN(CCO)CC1(c1ccccc1)CN(CCO)C2	0.68	1.1	/	/	-0.9	-3.2	-9%
12	O=c1cc(Cl)c(-c2ccccc2)nn1Cc1ccc(Cl)cc1	0.68	2.8	i	3.3	5.2	-2.4	0%
13	Cc1cccc(CNC(=O)c2ccc3nc(Cc4ccccc4F)oc3c2)n1	0.73	-2.3	i	-0.2	?	-2.2	-14%
14	Cc1ccccc1NC(=O)COc1ccc(Br)cc1C	0.65	1.0	i	-9.6	-3.5	4.4	-4%
15	CN(Cc1ccccc1)S(=O)(=O)c1ccc(OCC(=O)Nc2cccc([N+](=O)[O-])c2)cc1	0.72	1.5	i	2.8	-3.8	1.0	10%
16	Nc1ccccc1SCC1CSc2nc3ccccc3c(=O)n21 (centres undefined)	0.67	-0.7	i	0.5	0.9	1.1	-3%
17	Cc1cc(NC(C)c2ccccc2)n2ncc(-c3ccccc3)c2n1 (centres undefined)	0.67	-158	i	-9.1	-3.7	3.9	-2%
18	Cc1ccc2c3c(cccc13)-c1ccccc1C2=O	0.69	-21	i	11	64*	-39	-11%
19	CC1(CCc2ccccc2)NC(=O)N(CC(=O)Nc2ccc(S(N)(=O)=O)cc2)C1=O (centres undefined)	0.65	-0.9	i	-1.8	-1.4	-0.4	-4%
20	Cc1onc(-c2ccccc2)c1C(=O)N1CCCC(C(F)(F)F)C1 (centres undefined)	0.69	0.7	i	-0.5	1.1	-1.4	/
21	CCCCC1CC2=C(C(=O)OC(C)(C)O2)C(c2ccc(Cl)cc2)O1 (centres undefined)	/	/	i	-5.1	/	5.2	/
22	CC(C)(C)c1ccc(CC(=O)N2CCC2(C)C(=O)O)cc1 (centres undefined)	/	/	i	-2.2	/	1.3	/
23	COc1ccc(CNCCC2(C(C)C)CCOC(C)(C)C2)cc1 (centres undefined)	0.68	3.5	i	-0.2	3.1	-0.6	/
24	CC(=O)Nc1ccc(S(=O)(=O)N2CCCC2)cc1	0.68	1.9	i	0.5	0.2	-5.8	/
25	C/C=C(/C)C(=O)Nc1cccc(C2=NOC3(C2)C[C@@H](C(N)=O)N(C(=O)CC)C3)c1 (some centres undefined)	/	-1.1	i	0.2	5.8	-6.1	1%
26	CS(=O)(=O)N(Cc1nc2sc3c(c2c(=O)[nH]1)CCCC3)C1CCCCC1	0.74	-23	/	/	-2.0	/	/
27	CCCNc1nc2c(c(=O)n(C)c(=O)n2C)n1CCCc1ccccc1	/	/	i	-0.6	-2.2	-1.5	?
28	COc1cccc(CN2CCSCC2)c1	0.66	4.3	i	3.3	4.4	-2.6	61%
29	COc1cc(NC(=O)CN(C)S(=O)(=O)c2ccc3c(c2)CC(C)N3C(C)=O)cc(OC)c1OC (centres undefined)	0.62	3.2	i	-12	-5.0	4.4	0%
30	Cc1ccc(-c2nnn(CC(=O)Nc3ccccc3-c3ccccc3)n2)c(-n2cnnn2)c1	0.67	6.1	/	/	-0.6	-1.3	23%
31	CCc1cccc(Nc2cnn(C34C[C@@H]5C[C@@H](CC(CC(=O)O)(C5)C3)C4)c(=O)c2Cl)c1	0.61	12	i	-5.6	1.7	-0.2	10%
32	COc1ccc(NC(=O)C2CCCN2S(=O)(=O)c2cccc3cccnc23)cc1OC (centres undefined)	0.72	0.9	i	-1.2	0.6	0.3	/
33	COc1ccc(C=Nc2cccnc2N)cc1	0.72	-3.2	/	/	25*	1.5	/
34	O=C1C(Oc2ccccc2)C(c2ccc3c(c2)OCO3)N1CCc1ccc(F)cc1 (centres undefined)	0.69	4.1	i	-10	-3.1	-0.2	9%
35	CC(=O)Nc1ccc(C(=O)COC(=O)CN2C(=O)NC3(CCCCC3C)C2=O)cc1 (centres undefined)	0.7	3.8	i	0.3	/	2.6	-10%
36	O=C(Nc1sc2c(c1C(=O)NCc1ccco1)CCCC2)c1ccc2c(c1)OCO2	0.72	-195	/	/	?	4.8	15%&-8%
37	O=C(c1nn(Cc2ccccc2)c(=O)c2ccccc12)N1CCN(C/C=C/c2ccccc2)CC1	0.77	-5.2	/	/	2.9	-6.0	-4%
38	COc1ccc(C(=O)NCCNC(C)=O)cc1S(=O)(=O)NCc1ccc(Cl)cc1	0.74	-0.9	/	/	-0.6	1.3	1%
39	CN1CCN(C(=O)C(=O)c2cn(CC(=O)N3CCCCCC3)c3ccccc23)CC1	/	/	i	-8.1	/	0.6	/
40	Cc1c(C)c2c(OCC(=O)O)cc3c(c2oc1=O)CCC(C)(C)O3	0.69	i	i	6.2	-3.0	-1.4	0%
41	Oc1ccc(C[C@H]2CNC(=S)N2CC2CCCN2C[C@H](Cc2ccccc2)N2C[C@H](Cc3ccc(O)cc3)N(CCc3ccccc3)C2=S)cc1 (some centres undefined)	/	/	i	-49	/	-0.6	/
42	COCCNC(=S)N1CCC(c2nc(-c3ccc(N(C)C)cc3)no2)CC1	0.73	3.0	/	/	1.2	0.1	6%
43	CC(C)(C)CC(C)(C)NCC(O)COc1ccc2c(c1)CCC2 (centres undefined)	0.68	0.4	/	/	-0.2	1.1	/
44	COc1cc(C)nc(NC(=O)NC(=O)c2ccc(C(F)(F)F)cc2)n1	0.71	1.6	i	-4.7	1.8	-5.0	/
45	CCCn1ncc(CN2CCC(Oc3ccc(C(=O)N4CCCC4)cc3)CC2)c1C	0.7	0.4	i	-1.1	5.0	-2.9	-11%

Profiles as entered above:
CC(C)(C)CC(C)(C)NCC(O)COc1ccc2c(c1)CCC2 (centres undefined) in the list: E coli growth = 0.68; UCH37 DUB inh = 0.4; FGF22 binding = /; MLL AF4-AF9 inh = /; RanGTP-Imp inh = -0.2; HNF4A DNA FP = 1.1; Vif TR-FRET = /
CN1CCN(C(=O)C(=O)c2cn(CC(=O)N3CCCCCC3)c3ccccc23)CC1 in the list: E coli growth = /; UCH37 DUB inh = /; FGF22 binding = i; MLL AF4-AF9 inh = -8.1; RanGTP-Imp inh = /; HNF4A DNA FP = 0.6; Vif TR-FRET = /

(more compounds)
no.	SMILES	E coli growth	UCH37 DUB inh	FGF22 binding	MLL AF4-AF9 inh	RanGTP-Imp inh	HNF4A DNA FP	Vif TR-FRET
46	COc1cc2c(cc1OC)C(=O)N1[C@H]3c4cc(C)ccc4OC[C@@H]3[C@H](c3ccccc3)[C@]1(C)C(=O)N2	/	2.5	i	5.4	/	6.6	/
47	[O-][n+]1c2ccccc2cc2ccccc21	0.54	-61	i	-0.9	79*	1.9	/
48	c1ccn(-c2ncnc3sc4c(c23)CCCC4)c1	0.7	4.8	/	/	/	-0.6	9%
49	CCc1ccc([C@@H]2CC=C(C(=O)O)[C@H](c3ccccc3)N2S(=O)(=O)c2ccc(C)cc2)cc1	/	1.3	i	-3.5	/	-1.8	/
50	C#CCNC(=O)C1=C[C@@H](c2ccc(C(F)(F)F)cc2)C[C@@H](OCc2ccc(CO)cc2)O1	/	4.2	i	-13&-0.5	0.0	1.8	/
51	CCC(=O)NCCc1nc2cc(NC(=O)c3ccc(F)cc3)ccc2n1C	0.64	1.2	i	-0.6	-1.1	0.9	-5%
52	COc1cccc(/C=N/NC(N)=S)c1OS(=O)(=O)c1ccccc1	/	/	/	/	-2.5	2.2	-7%
53	Cc1ccc(CNC(=O)c2nnn(CC(=O)Nc3cc(C)cc(C)c3)c2N)cc1	0.67	-1.7	i	-0.4	1.9	-2.2	/
54	Cc1cnc(C(=O)OC(C)C(=O)NC2CCCc3ccccc32)cn1 (centres undefined)	0.64	0.3	/	-2.5	-2.4	5.5	14%
55	C=CCC[C@H](Cc1ccc(F)cc1)C(=O)OC[C@@H](Cc1c[nH]c2ccccc12)NC(=O)[C@@H](CC=C)CC(=O)N[C@H](CO)Cc1ccccc1	/	2.3	i	-24	/	-1.1	/
56	CC1CCN(C(=O)CSc2nnc(N)s2)CC1	0.7	4.4	i	-8.6	-1.1	-0.7	/
57	O=C(NCCCn1ccnc1)C(=O)c1c[nH]c2ccccc12	0.67	2.0	i	-1.3	-4.4	-0.4	3%
58	CC(=O)CC[N+](C)(C)C	/	/	i	-13	/	-4.2	-2%
59	COC(=O)c1ccc(/C=C/C(=O)c2ccc(OC)c(OC)c2)cc1	0.77	1.5	/	/	-0.7	0.0	?
60	CCCC(=O)Nc1ccc(C(=O)NNC(=O)c2ccccc2Br)cc1	0.73	-0.7	/	/	5.0	4.3	-5%
61	CC(=O)NC(Cc1c[nH]c2ccccc12)C(=O)NCCc1ccccn1 (centres undefined)	0.7	1.4	+	2.6	6.7	1.3	/
62	O=C(Nc1ccc2c(c1)OCCO2)C(c1ccncc1)n1c(=O)c(-c2ccco2)nc2ccccc21 (centres undefined)	/	/	i	7.7	/	2.0	/
63	COc1cc(NC(=O)CCC(=O)c2cccs2)cc(OC)c1	0.68	4.6	i	-0.5	2.2	-5.5	/
64	Cc1cc(NC(=O)c2cc(-c3ccc(C)c(C)c3)nc3ccccc23)no1	0.66	-23	/	/	-2.8	2.8	/
65	CC(=O)C1=C(C)NC(=S)NC1c1cccc([N+](=O)[O-])c1 (centres undefined)	0.68	6.9	i	-1.3	2.3	-5.1	/
66	COc1ccc(C(=O)NC(C(=O)OCC(=O)Nc2sccc2C(N)=O)C(C)C)cc1 (centres undefined)	0.71	-0.2	i	0.5	/	-1.6	/
67	CS(=O)(=O)c1ccc2nc(NC(=O)c3ccc(=O)[nH]c3)sc2c1	0.68	4.9	i	3.0	7.2	7.0	-2%
68	Cc1ccc(-n2c(SCC(=O)NC3CCS(=O)(=O)C3)nc3ccccc3c2=O)cc1 (centres undefined)	0.64	-0.2	i	-0.8	-1.7	-3.0	-12%
69	CC1CCCN(S(=O)(=O)c2ccc(NC(=O)c3cccc(-n4cnnn4)c3)cc2)C1 (centres undefined)	0.69	3.8	/	/	-5.6	-1.0	-2%
70	COCCCNC(=O)c1ccc2c(=O)n(CC3CCCO3)c(=S)[nH]c2c1 (centres undefined)	0.66	-3.3	/	/	1.9	1.3	15%
